# AF4-AF9 inh – inhibitors of human MLL-AF4/AF9 interaction; AID 651704; inhibition, % at 10 µM; 0.47% of 350,000 active; P42568; AlphaScreen, biotin-AF4 peptide binding to FLAG-AF9;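 active means every replicate reaching a set inhibition limit, whatever the replicate mean, cut at about 25% in these data; inconclusive means mean inhibition reaches that limit but some replicates miss it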;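 further: 0% = plate neutral control median and 100% = total signal loss; the record names both 10 and 1 µM as test concentration; the first replicate is given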
# Target sequence (P42568 whole entry, looked up): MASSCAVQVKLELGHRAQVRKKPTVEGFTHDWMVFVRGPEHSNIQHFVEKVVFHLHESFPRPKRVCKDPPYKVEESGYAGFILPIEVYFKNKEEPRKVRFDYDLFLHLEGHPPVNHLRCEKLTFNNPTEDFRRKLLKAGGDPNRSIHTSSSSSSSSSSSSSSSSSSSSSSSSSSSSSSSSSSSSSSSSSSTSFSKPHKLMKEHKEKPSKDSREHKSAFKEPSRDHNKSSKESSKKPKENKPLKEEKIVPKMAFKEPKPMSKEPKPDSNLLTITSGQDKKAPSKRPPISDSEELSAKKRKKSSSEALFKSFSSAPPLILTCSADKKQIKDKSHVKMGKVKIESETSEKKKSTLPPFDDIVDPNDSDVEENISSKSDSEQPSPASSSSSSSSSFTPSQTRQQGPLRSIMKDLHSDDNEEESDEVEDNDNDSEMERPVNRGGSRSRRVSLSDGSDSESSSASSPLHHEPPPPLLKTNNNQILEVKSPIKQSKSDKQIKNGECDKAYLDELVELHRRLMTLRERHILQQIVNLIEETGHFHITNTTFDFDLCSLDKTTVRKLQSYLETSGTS
# FGF22 binding – FGF22 (human) thermal shift binding. AID 651658. 1.5% of 340,000 active. calls only at 9.99 µM. Q9HCT0. recombinant FGF22 thermal shift, SYPRO orange fluorescence; percent of sucrose octasulfate shift, DMSO zero;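 active means melting point raised past a set limit in the mean and every replicate; inconclusive means no clear call; three in four hits are not shown here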
# Target sequence (Q9HCT0 whole entry, looked up): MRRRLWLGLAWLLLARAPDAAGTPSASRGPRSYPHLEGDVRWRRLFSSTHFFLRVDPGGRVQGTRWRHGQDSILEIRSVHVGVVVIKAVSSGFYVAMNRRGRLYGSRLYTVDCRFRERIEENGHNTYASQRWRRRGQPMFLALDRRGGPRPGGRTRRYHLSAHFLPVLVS
# Ecoli rRNA inh – selective bacterial rRNA inhibition in E. coli. 1.6% of 350,000 active. GFP signal change (wild-type ribosome), % (test concentration not listed). E. coli WT GFP vs humanized-ribosome RFP mutants, fluorescence, 24 h; stronger effect = lower value; DMSO median 0, no signal -100;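 active means significant combined selectivity score with lowered wild-type GFP, culture density cut under 30%, mutant RFP and density less affected; inactive means any of these conditions unmet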; further: one replicate is shown; some compounds called inactive have numbers as strong as hits
# Ecoli rRNA inh OD600 – also measured in Ecoli rRNA inh; calls as there; OD600 change, %; measured here: OD600 growth;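 optical density of the mix in the first replicate; 0 = DMSO median and -100 = no signal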
# Ecoli rRNA inh RFP – second read-out of Ecoli rRNA inh, no call of its own (marks repeat the call); RFP signal change, %; measured here: RFP humanized mutant strains;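 first replicate; 0 = DMSO median and -100 = no signal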
# Active calls of the source: *; i = inactive; u = inconclusive; x = no result given; + = active, no number; & = joins results of further samples. These rows are one share of the data. The share of hits here may be higher or lower than overall.
SMILES,AF4-AF9 inh,FGF22 binding,Ecoli rRNA inh,Ecoli rRNA inh OD600,Ecoli rRNA inh RFP
C[C@H](CO)N1C[C@H](C)[C@@H](CN(C)C(=O)Nc2ccc(C(F)(F)F)cc2)OCc2cnnn2CCCC1=O,-0.1,i,-13,-7,3.8
CO[C@H]1CN(C)C(=O)c2cc(NC(C)=O)ccc2OC[C@@H](C)N(C(=O)c2ccc(F)cc2)C[C@@H]1C,-0.3,i,2,0,-0.7
C[C@@H]1CCCCO[C@@H](CN(C)S(=O)(=O)c2ccccc2)[C@H](C)CN([C@@H](C)CO)C(=O)c2cc(NC(=O)Nc3ccc(C(F)(F)F)cc3)ccc2O1,-1.4,i,1,2,-0.8
COc1ccc2c3c([nH]c2c1)[C@H](CO)N(Cc1ccncc1)CC31CCN(C(=O)Cc2ccncc2)CC1,-5.2,i,1,9,-1.1
CCC(=O)N(C)C[C@H]1Oc2cc(C#Cc3ccncc3)ccc2S(=O)(=O)N([C@@H](C)CO)C[C@@H]1C,u,i,-5,-6,-0.6
C#CCNC(=O)C[C@H]1C[C@@]2(C(=O)OC)C(=C[C@H](COCc3ccccc3)O[C@@H]2C)N(CCC2=CCCCC2)C1=O,-1.2,i,1,-8,7.3
C[C@@H]1CN([C@H](C)CO)C(=O)Cc2cc(NC(=O)C3CC3)ccc2O[C@@H]1CN(C)Cc1ccccc1,-0.5,i,-3,-8,-0.3
Cc1ccccc1-c1cnc(C(O)c2ccc(Cl)c(F)c2)[nH]1 (stereo not given),3.6,i,-51,-74,-14
Cc1cc(=O)oc2cc(OCC(=O)NC3(C#N)CCCCC3)ccc12,-6.3,i,9,12,1.9
CC(=O)Nc1ccc(S(=O)(=O)NCC(=O)OCC(=O)NCCc2ccccc2)cc1,0.4,i,9,13,-0.3
C[C@@H]1CN([C@H](C)CO)C(=O)c2cccc(NC(=O)c3nc4ccccc4s3)c2O[C@H]1CN(C)Cc1ccncc1,6.8,i,-12,-18,0.4
C[C@H]1CN([C@@H](C)CO)C(=O)c2c(c3ccccc3n2C)-c2ccccc2CO[C@@H]1CN(C)C(=O)[C@@H]1CCCN1C,-1.5,i,0,3,-1.8
O=C(Nc1ccccc1Cl)N1C[C@@H]2[C@H](c3ccccc31)[C@H](CO)N2C(=O)c1cccnc1,-1.7,i,1,-2,-2.2
Cc1ccc(NC(=O)Nc2ccc3c(c2)C(=O)N(C)[C@H]2CC[C@H](CC(=O)NCC(F)(F)F)O[C@@H]2CO3)cc1,-5.5,i,0,-3,-0.1
C[C@H](CO)N1C[C@H](C)[C@H](CN(C)C(=O)Nc2ccccc2)Oc2ccc(NC(=O)Nc3ccccc3)cc2CC1=O,-7.2,+,1,5,-1.5
COC(=O)C[C@H]1C[C@H]2c3cc(NC(=O)NC4CCCC4)ccc3O[C@H]2[C@@H](CO)O1,-0.7&-14,i,10&1,16&-4,-2.4&1.0
COc1ccc(NC(=O)N(C)C[C@@H]2Oc3cc(C#CCC(C)C)ccc3S(=O)(=O)N([C@H](C)CO)C[C@@H]2C)cc1,5.7,i,1,-15,-2.7
COc1ccccc1C#Cc1cnc2c(c1)C(=O)N([C@@H](C)CO)C[C@@H](C)[C@@H](CN(C)C(=O)CC1CC1)O2,-1.7,i,-1,-2,1.3
C[C@H](CO)N1C[C@H](C)[C@H](CN(C)Cc2cccc(F)c2)Oc2ncc(C3=CCCC3)cc2C1=O,4.5&-2.2&-2.5,i,-11&0,-10&4,12&2.4
O=C(C[C@H]1C=C[C@H](NC(=O)c2ccc3c(c2)OCO3)[C@@H](CO)O1)NC1Cc2ccccc2C1,-0.7,i,1,1,0.3
CC(=O)N[C@@H](CS)C(=O)O,2.4,i,7,13,-2.7
COc1ccc(N2CCN(C(=O)c3ccc4c(c3)CCN4S(C)(=O)=O)CC2)cc1,4.3,i,5,0,5.7
Cc1ccc(S(=O)(=O)NN=C2CC(C)(C)CC(=O)C2(C)C)cc1,-1.7,i,-6,-6,0.7
COc1ccc(S(=O)(=O)Nc2ccc3c(c2)CC(=O)N([C@H](C)CO)C[C@@H](C)[C@H](CN(C)Cc2ccccc2)O3)cc1,-1.4,i,-1,-5,7.7
CC(C)NC(=O)Nc1ccc2c(c1)C(=O)N([C@@H](C)CO)C[C@H](C)[C@@H](CN(C)C(=O)Nc1cccc3ccccc13)O2,-2.4,i,5,7,0.6

# Some of the entries so far, with bars between the fields.
canonical_smiles | AF4-AF9 inh | FGF22 binding | Ecoli rRNA inh | Ecoli rRNA inh OD600 | Ecoli rRNA inh RFP
O=C(Nc1ccccc1Cl)N1C[C@@H]2[C@H](c3ccccc31)[C@H](CO)N2C(=O)c1cccnc1 | -1.7 | i | 1 | -2 | -2.2
C[C@H](CO)N1C[C@H](C)[C@H](CN(C)C(=O)Nc2ccccc2)Oc2ccc(NC(=O)Nc3ccccc3)cc2CC1=O | -7.2 | + | 1 | 5 | -1.5
Cc1ccc(NC(=O)Nc2ccc3c(c2)C(=O)N(C)[C@H]2CC[C@H](CC(=O)NCC(F)(F)F)O[C@@H]2CO3)cc1 | -5.5 | i | 0 | -3 | -0.1

# (next part)
SMILES,AF4-AF9 inh,FGF22 binding,Ecoli rRNA inh,Ecoli rRNA inh OD600,Ecoli rRNA inh RFP
CCCNC(=O)N[C@@H]1CC[C@@H](CC(=O)NCCc2ccccc2)O[C@H]1CO,-3.2,i,3,8,-1.3
O=C(Nc1ccccc1)N1C[C@H]2[C@@H](c3ccccc31)[C@H](CO)N2C(=O)c1ccccn1,-13,i,1,8,-2.5
Cc1ccccc1S(=O)(=O)N1C[C@H](O)COC[C@H]2O[C@H](CC(=O)N3CCOCC3)CC[C@@H]21,-1.7,i,4,8,-3.8
C[C@@H]1CN([C@H](C)CO)C(=O)Cc2cc(NS(=O)(=O)c3cn(C)cn3)ccc2O[C@@H]1CN(C)C(=O)Nc1ccc2c(c1)OCO2,-27,i,3,2,-3.6
CC(C)C1C(=O)N(Cc2cn(CCC3OCCO3)nn2)CCS(=O)(=O)N1Cc1ccc(-c2ccc(F)cc2Cl)cc1 (stereo not given),1.5,i,1,5,4.9
COc1ccc(-c2ccc3n(c2=O)C[C@@H]2[C@@H](CO)[C@H](C(=O)N4CCOCC4)[C@H]3N2C)cc1,-1.3,i,-3,3,0.4
C[C@@H]1CN([C@H](C)CO)S(=O)(=O)c2ccc(C#CC3CC3)cc2O[C@H]1CN(C)CC1CCOCC1,7.4,i,-7,-19,-0.5
COc1ccc(CCN2CC(C(=O)NCCc3ncccc3C)CCC2=O)cc1 (stereo not given),-0.9,i,9,6,-0.3
C[C@H](CO)N1C[C@H](C)[C@H](CN(C)S(=O)(=O)c2ccc(F)cc2)Oc2ncc(C#Cc3cccc(F)c3)cc2C1=O,-1.3,i,3,2,-0.5
COc1ccc(S(=O)(=O)Nc2ccc3c(c2)CC(=O)N([C@H](C)CO)C[C@@H](C)[C@H](CN(C)Cc2ccc(C(=O)Nc4ccccc4N)cc2)O3)cc1,-1.7,i,-3,-10,-0.8
CCCCCNC(=O)C(c1ccnc2ccccc12)n1c(=O)c(-c2ccccc2)nc2ccccc21 (stereo not given),0.5,i,-1,-10,-1.5
Cc1noc(C)c1NC(=O)N1C[C@@H](O)COC[C@H]2O[C@H](CC(=O)NCC3CC3)CC[C@@H]21,-1.2,i,5,18,1.0
CCNC(=O)C[C@@H]1CC[C@@H]2[C@@H](COc3ccc(NC(=O)c4ccc(C(F)(F)F)cc4)cc3C(=O)N2C)O1,-1.7,i,-1,5,-1.1
CC(C)NC(=O)N(C)C[C@@H]1Oc2c(NC(=O)Nc3ccccc3)cccc2C(=O)N([C@H](C)CO)C[C@@H]1C,0.1,i,-2,-3,3.3
Cc1ccc(F)cc1-c1cc(C(=O)NCc2cc(C(F)(F)F)cc(C(F)(F)F)c2)[nH]n1,-4.6,i,4,1,-2.3
CC[C@@H](NCCCn1cnc2c(SC)ncnc21)c1ccccc1,-1.3,i,6,18,-0.4
Cn1c(=O)c2cc(NC(=S)NC3CCCCC3)ccc2n1Cc1ccc(F)cc1,-0.7,i,-14,-20,-2.4
Nc1[nH]c(C(=O)c2ccc(Br)cc2)c(-c2ccc(Cl)cc2Cl)c1C(=O)NCCc1c[nH]c2ccccc12,-0.6,x,6,18,15
Cc1ccccc1-c1cc2nc(Oc3ccc4c(c3)OCO4)n(C)c(=O)c2s1,-21,i,2,0,-0.8
COCC#Cc1ccc([C@@H]2[C@@H](CO)N3C(=O)CN(C(=O)c4ccncc4)C[C@H]23)cc1,-2.0,i,3,9,0.1
Cc1cc2nc(C3CCCCC3)c(Cc3ccsc3)n2c(C)c1Br,-2.3,i,26,16,6.6
CNC[C@@H]1Oc2ccc(NS(C)(=O)=O)cc2CC(=O)N([C@@H](C)CO)C[C@H]1C,-3.4,i,-1,2,-1.4
C[C@@H]1CN([C@@H](C)CO)S(=O)(=O)c2ccc(C#CC3CC3)cc2O[C@@H]1CN(C)Cc1ccccn1,-2.0,i,-8,-22,9.0
CCc1ccccc1Nc1nc(N)nc(COC(=O)C2CCN(C(=O)c3ccc(F)cc3)CC2)n1,-2.8,i,-7,-10,4.6
O=C(NCc1ccccc1)c1ccc(NC(=O)C2CCCC2)cc1,-2.1,i,-1,0,-4.3

# New compounds follow
SMILES,AF4-AF9 inh,FGF22 binding,Ecoli rRNA inh,Ecoli rRNA inh OD600,Ecoli rRNA inh RFP
C[C@H]1CN([C@@H](C)CO)C(=O)c2cc(NC(=O)Nc3ccc4c(c3)OCO4)ccc2O[C@@H]1CN(C)C(=O)Nc1ccc(C(F)(F)F)cc1,7.4,i,-7,-9,3.4
C[C@H](CO)N1C[C@H](C)[C@@H](CN(C)C(=O)Cc2ccccc2)OCCCC[C@H](C)Oc2ccc(NS(=O)(=O)c3cn(C)cn3)cc2C1=O,-2.3,i,0,-6,-2.6
O=C(CC(O)(CC(=O)OCc1ccccc1)C(=O)OCc1ccccc1)OCc1ccccc1,-4.9,i,-5,-25,-0.9
O=C1CCC2c3[nH]c4ccccc4c3CCN12 (stereo not given),-0.7,i,0,10,12
CN1C(=O)c2cc(NC(=O)C3CCCCC3)ccc2OC[C@H]2O[C@@H](CC(=O)NCc3ccccc3F)CC[C@@H]21,-0.8,i,-3,-8,-0.6
C[C@@H]1CN([C@H](C)CO)C(=O)c2cc(-c3ccccc3)cnc2O[C@H]1CN(C)C(=O)NC1CCCC1,-0.1,i,-2,7,-2.7
N#Cc1cccc(-c2ccc([C@H]3[C@H]4CN(C(=O)Nc5ccc(F)cc5)CCCCN4[C@H]3CO)cc2)c1,-3.7,i,-2,-4,0.7
O=C(C[C@H]1CC[C@@H](NS(=O)(=O)c2ccc(F)cc2)[C@@H](CO)O1)N1CCN(c2ccccc2)CC1,0.7,i,0,-1,2.6
C[C@@H]1CN([C@H](C)CO)C(=O)c2cccc(NC(=O)c3nc4ccccc4s3)c2O[C@H]1CN(C)CC1CC1,9.4,i,-9,-39,11
C[C@@H]1CN([C@H](C)CO)C(=O)c2cc(NS(C)(=O)=O)ccc2O[C@@H](C)CCCCO[C@@H]1CN(C)C(=O)CCCN(C)C,-3.8,i,4,7,-2.9
C[C@@H]1CN([C@H](C)CO)C(=O)c2cccc(NC(=O)c3cnccn3)c2O[C@H]1CN(C)Cc1ccc(C(F)(F)F)cc1,2.0,i,-7,-5,-0.5
O=[N+]([O-])c1ccc(CN2CC(N3CCC(c4ccccc4)CC3)CS2(=O)=O)cc1 (stereo not given),2.1,i,-5,-2,5.0
COc1ccc2c3c([nH]c2c1)[C@@H](CO)N(C(=O)NC(C)C)CC31CN(C(=O)c2cnccn2)C1,-0.4,i,-1,2,-4.4
O=C(C[C@@H]1C[C@H]2c3cc(NS(=O)(=O)c4ccc(F)cc4)ccc3O[C@H]2[C@H](CO)O1)NCc1ccncc1,0.2,i,-2,-6,-0.5
C[C@H](CO)N1C[C@H](C)[C@@H](CN(C)Cc2ccc(C(=O)O)cc2)Oc2ccc(NC(=O)C3CC3)cc2CC1=O,-2.7,i,-1,15,1.6
CO[C@@H]1CN(C)C(=O)c2ccc(NC(C)=O)cc2OC[C@@H](C)N(CC2CCCCC2)C[C@@H]1C,2.6,i,1,-4,-1.5
COc1ccc(NC(=O)Nc2ccc3c(c2)C(=O)N([C@@H](C)CO)C[C@H](C)[C@H](CN(C)Cc2ccc(C(=O)O)cc2)OCCCC[C@@H](C)O3)cc1,1.0,i,1,0,-0.3

# Compound profiles (already shown).
# Listed for `O=C1CCC2c3[nH]c4ccccc4c3CCN12` (stereo not given) → AF4-AF9 inh = -0.7; FGF22 binding = i; Ecoli rRNA inh = 0; Ecoli rRNA inh OD600 = 10; Ecoli rRNA inh RFP = 12
# Listed for `O=C(Nc1ccccc1Cl)N1C[C@@H]2[C@H](c3ccccc31)[C@H](CO)N2C(=O)c1cccnc1` → AF4-AF9 inh = -1.7; FGF22 binding = i; Ecoli rRNA inh = 1; Ecoli rRNA inh OD600 = -2; Ecoli rRNA inh RFP = -2.2

# Screening results (PubChem)
